# Beta2AR agonist = beta2AR agonists driving receptor internalization, primary screen, cell-based, FAP fluorogen, flow cytometry; 340,000 compounds, 0.43% hits; Am2.2-beta2AR cells; reference of the scale not given here; response, % (concentration not given with the values);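 active = response above a set limit, near 3 SD of response in nonfluorescent compounds, cut at about 42% in these data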;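 note: stock transfer was 100 nL into about 11 µL; a reference agonist was the positive control; negative values mostly stem from fluorescent compounds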
# Target sequence (P07550 whole entry, looked up): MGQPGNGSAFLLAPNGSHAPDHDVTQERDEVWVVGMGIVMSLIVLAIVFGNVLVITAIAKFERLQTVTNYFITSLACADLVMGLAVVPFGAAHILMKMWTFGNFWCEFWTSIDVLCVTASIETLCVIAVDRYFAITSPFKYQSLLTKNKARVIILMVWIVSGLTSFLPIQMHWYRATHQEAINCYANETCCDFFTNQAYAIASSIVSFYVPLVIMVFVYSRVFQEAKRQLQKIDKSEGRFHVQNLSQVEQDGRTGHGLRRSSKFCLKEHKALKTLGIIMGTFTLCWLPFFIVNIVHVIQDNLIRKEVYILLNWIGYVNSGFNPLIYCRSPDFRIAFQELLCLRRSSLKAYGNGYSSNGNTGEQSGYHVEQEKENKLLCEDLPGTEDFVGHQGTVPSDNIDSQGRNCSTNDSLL
# T cruzi inh = inhibitors of intracellular T. cruzi growth, primary screen, luminescence, NIH3T3 host cells. T. cruzi beta-gal in NIH3T3, 90 h. inhibition, % (concentration not given with the values). 300,000 compounds, 1.4% hits. AID 1885, 2009;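 active = mean inhibition across valid replicates above about 55%, limit read from the data; inconclusive = mean below that limit but half or more replicates reach it; inactive = mean below it, under half of replicates reach it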;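 note: signal also drops with host cell toxicity which is not excluded here; 0% = plate median of DMSO wells and 100% = zero luminescence signal; higher percent means less beta-gal luminescence so fewer parasites; stock transfer was 50 nL into about 50 µL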
# LANA-H2B inh = blockers of LANA interaction with H2A/H2B – biochemical, FP readout, HTS, primary screen | Protein LANA1 (Human herpesvirus 8 type P (isolate GK18)), Q9QR71 | cell-free LANA-H2A/H2B peptide, fluorescence polarization | inhibition, % (no concentration beside the values) | 320,000 compounds, 0.6% hits | AID 2629, 2010; in the data active = inhibition mostly above about 10%, no sharp cut-off; inactive = mostly below about 6.7%;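 note: stock transfer was 7.5 nL into about 10 µL; 0% = median of vehicle wells and 100% = median of positive control wells; one replicate is shown; the record names a cut of 25% in any replicate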
# Bfl-1 A1 inh = caspase 3/7 activation in MEF A1-2A-BIM cells, primary screen, A1 inhibitor project, cell-based, luminescence, HTS | Caspase-Glo 3/7 luminescence, 3 h; percent of clofoctol response, vehicle zero | caspase activation, % (test concentration not listed) | 330,000 compounds, 0.066% hits | AID 2462, 2010;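 active = over half of replicate activation scores above 10%, or exactly half above 10 with the replicate mean above 10; inconclusive = replicate mean below 10 yet half the replicates above 10; inactive = over half of replicates below 10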;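 note: wells of about 30 µL received 50 nL stock; many hits fall short of the cut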
# Beta cell apopt = inhibitors of cytokine-induced beta cell apoptosis, primary screen, luminescence; INS-1E cytokine-induced death, ATP luminescence, 48 h; percent of positive-control rescue, neutral wells zero; 300,000 compounds, 0.8% hits; protection from apoptosis, % (concentration not given with the values);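 active = all replicates at 75% or more, or half of them and the mean; inconclusive = half reach 75% but not the mean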;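 note: 0% = cytokine-treated negative control wells and 100% = positive control rescue; higher means more ATP so stronger rescue from cytokine killing; wells of about 40 µL received 100 nL stock; the first replicate is given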
# UCH37 DUB inh = inhibitors of human UCH37 deubiquitinase, primary screen, biochemical, Ub-AMC cleavage, fluorescence | 330,000 compounds, 0.33% hits | Ubiquitin carboxyl-terminal hydrolase isozyme L5 (Homo sapiens), Q9Y5K5 | inhibition, % (no concentration beside the values) | AID 588478, 2011 | purified proteasome/UCH37;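 active = mean of two replicates above 20%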;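 note: 0% = compound-free wells with enzyme and 100% = wells lacking proteasome; stock transfer was 100 nL into about 20 µL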
# Target sequence (Q9Y5K5 whole entry, looked up): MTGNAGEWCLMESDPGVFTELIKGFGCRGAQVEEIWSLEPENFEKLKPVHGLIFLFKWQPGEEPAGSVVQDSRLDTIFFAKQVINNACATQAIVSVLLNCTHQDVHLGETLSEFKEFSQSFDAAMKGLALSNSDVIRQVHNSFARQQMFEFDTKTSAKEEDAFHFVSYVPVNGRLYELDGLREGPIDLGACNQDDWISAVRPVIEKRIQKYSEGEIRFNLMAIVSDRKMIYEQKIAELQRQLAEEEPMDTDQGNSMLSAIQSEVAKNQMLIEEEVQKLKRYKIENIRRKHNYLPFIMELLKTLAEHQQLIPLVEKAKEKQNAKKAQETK
#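 Material: Human UCH37 enzyme supplied as purified proteasome complex | Schedule: 30 min preincubation with enzyme, 25 min cleavage at room temperature | Detection: AMC fluorescence 355/460 nm | Measure: % inhibition of Ub-AMC cleavage fluorescence | Controls: Wells without proteasome as full block, compound-free enzyme plus substrate as uninhibited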
# RanGTP-Imp inh = inhibitors of RanGTP-importin-beta interaction, primary screen, biochemical, FRET, CFP-Ran, YFP-importin-beta, homogeneous | cell-free CFP-Ran/YFP-importin-beta FRET ratio | Ran GTPase (GTP-bound) - importin-beta complex | inhibition, % (no concentration beside the values) | 300,000 compounds, 1.1% hits;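 active = most replicates above 15%; inconclusive = exactly half above 15%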;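 note: 0% = DMSO wells and 100% = Ran loaded with GDP instead of GTP; wells of about 40 µL received 100 nL stock; the first replicate is given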
# Calb FLC = C. albicans growth inhibition with fluconazole, primary screen, CaCi-2 strain, Alamar Blue fluorescence. C. albicans CaCi-2 (fluconazole-resistant clinical isolate) + fluconazole, 48 h. growth inhibition, % (concentration not given with the values). 300,000 compounds, 0.57% hits. AID 1979, 2009;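 active = most replicates above 75%; inconclusive = exactly half above 75%; inactive = most below 75%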;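 note: all wells also contain fluconazole at 8 µg/ml as a sub-toxic cotreatment; 0% = median of DMSO wells and 100% = median of geldanamycin control wells; wells of about 8 µL received 7.5 nL stock; the first replicate is given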
# An asterisk follows results filed as active; ? = inconclusive; · = no result given.
# Order of results – Beta2AR agonist	T cruzi inh	LANA-H2B inh	Bfl-1 A1 inh	Beta cell apopt	UCH37 DUB inh	RanGTP-Imp inh	Calb FLC
N=c1c2c(ncn1CCCO)Oc1c(ccc3ccccc13)C2c1ccccc1 (stereo unspecified)
→ 18	10	-4.9	0.7	19	9.2	-0.5	12
Cn1ccnc1SCC(=O)c1cccc(C(F)(F)F)c1
→ -1	-8	-0.7	-4.3	-3	2.3	4.5	4
CC(=O)c1cccc(CN2CCN(CC=C(C)C)C(CCO)C2)c1 (stereo unspecified)
→ -7	3	·	·	·	4.0	0.1	?
CNCc1ccccc1Sc1ccc(O)c(O)c1
→ -1	31	·	0.0	-1	1.5	-1.7	107*
C=CCN1C(=O)c2ccc(C(=O)NCCc3ccc(F)cc3)cc2C1=O
→ 21	2	-1.2	-0.2	-1	-2.4	2.5	6
CCNc1nc(NCC)n2c(SCC(=O)c3ccccc3F)nnc2n1
→ -8	3	5.9	0.9	-3	1.2	-2.3	11
CCCN1C(=O)S/C(=C/c2ccc(N3CCOCC3)o2)C1=O
→ 8	37	-72	-0.1	-2	7.9	8.2	45
COc1ccc(C(CNC(=O)C(=O)Nc2ccc3c(c2)OCCO3)N2CCN(C)CC2)cc1 (stereo unspecified)
→ 2	-4	-5.6	-1.8	·	3.8	-0.1	5
CCn1c(SCC(=O)NNC(=O)Cc2ccccc2)nnc1-c1ccccc1
→ 0	-12	-2.7	-0.3	-2	-0.3	?	-3
CC(c1ccccc1)n1c(-c2ccncc2)n[nH]c1=S (stereo unspecified)
→ -4	-6	1.9	1.0	3	0.8	-2.0	10
Cc1[nH]c(C)c(S(=O)(=O)N2CCN(c3ccccc3)CC2)c1C(=O)N1CCCCC1
→ 7	6	-1.4	-0.2	-4	3.5	1.1	5
COc1cccc(OCCCN2CCCCC2)c1
→ 13	10	1.8	0.1	-6	0.3	7.4	?
Cc1ccc(CC(=O)Nc2cc(C)on2)cc1
→ -2	-12	-0.2	0.5	-4	1.9	-3.7	11
CC(=O)c1cccc(N(CC(=O)NC2CCCC2)C(=O)c2ccc(C)s2)c1
→ 4	8	-1.2	0.4	4	1.3	2.9	3
Cc1cc(C)n(-c2ccc(NC(=O)C3CCCCN3C(=O)c3cccs3)cc2)n1 (stereo unspecified)
→ 0	-4	-4.2	-0.4	1	2.1	2.9	9

# Later entries:
# Order of results – Beta2AR agonist	T cruzi inh	LANA-H2B inh	Bfl-1 A1 inh	Beta cell apopt	UCH37 DUB inh	RanGTP-Imp inh	Calb FLC
CCOP(=O)(OCC)C(Nc1cccc([N+](=O)[O-])c1)c1ccc(OC)cc1 (stereo unspecified)
→ 3	5	-3.0	0.2	-2	4.8	-1.2	-3
CNC(=O)c1c(NC(=O)c2ccc(N3C(=O)CCC3=O)cc2)sc2c1CCCC2
→ -2	-12	-0.6	-0.3	1	2.4	3.9	-24
COc1cccc(CNC(=S)NC2CCCC2)c1
→ 1	0	-4.1	0.5	4	1.8	-0.4	-2
COc1ccccc1NC(=O)CNC(=O)c1ccccc1C
→ 0	-21	-5.5	0.4	-4	1.2	24*	-4
CS(=O)(=O)N(CC(=O)N/N=C/c1ccccn1)c1ccc(Oc2ccccc2)cc1
→ -35	-3	3.0	0.2	0	·	?	-25
C=C1CCN([C@H](C(=O)Nc2ccc(OC)cc2)C(C)C)S(=O)(=O)c2ccccc21
→ 8	-5	7.6	0.0	-1	2.6	-4.2	29
CCOC(=O)c1c(C)[nH]c(C(=O)C(C)OC(=O)c2cccc(OCc3c(C)noc3C)c2)c1C (stereo unspecified)
→ -1	46	4.6	-0.5	32	2.3	-5.4	-2
CC1CCN(C(=O)c2cc(-c3ccc(Cl)c(Cl)c3)on2)CC1
→ -4	·	8.2	-2.2	-4	0.6	1.7	12
CCc1nc(SCC(=O)NCC2CCCO2)c2oc3ccccc3c2n1 (stereo unspecified)
→ -8	-2	-0.9	1.2	5	2.4	0.5	-2
O=C(c1ccc2c(c1)N(Cc1ccccc1)C(=O)CS2)N1CCOCC1
→ 2	-5	0.9	1.6	-6	1.5	-2.3	-6
O=S(=O)(NN=C1CCCCCCC1)c1ccc(Br)cc1
→ -5	-13	1.3	1.1	-12	5.1	-0.5	-8
Cc1ccc(-n2c(C)nn(Cc3ccc([N+](=O)[O-])cc3)c2=O)cc1
→ -2	0	-5.0	1.3	-2	3.6	0.3	0
CC1(c2nnc(Cc3ccccc3)o2)CC(c2c(Cl)cccc2Cl)=NO1 (stereo unspecified)
→ 1	-3	0.1	0.4	-5	5.1	1.1	-1
CC1=C(C#N)C(NC(=O)C2CC2)(C(F)(F)F)C(=O)N1 (stereo unspecified)
→ -6	-22	-13	-0.1	5	1.0	2.7	-22
COC(=O)[C@@]1(Cc2ccccc2)[C@H]2c3cc(C(=O)N4CCCC4)n(CCSCCO)c3C[C@H]2CN1C(=O)c1ccccc1
→ ·	-1	-3.4	-0.3	1	0.5	1.9	19

# At a glance, some entries already given.
# Order of results – Beta2AR agonist	T cruzi inh	LANA-H2B inh	Bfl-1 A1 inh	Beta cell apopt	UCH37 DUB inh	RanGTP-Imp inh	Calb FLC
N=c1c2c(ncn1CCCO)Oc1c(ccc3ccccc13)C2c1ccccc1 (stereo unspecified)
→ 18	10	-4.9	0.7	19	9.2	-0.5	12
Cn1ccnc1SCC(=O)c1cccc(C(F)(F)F)c1
→ -1	-8	-0.7	-4.3	-3	2.3	4.5	4
CC(=O)c1cccc(CN2CCN(CC=C(C)C)C(CCO)C2)c1 (stereo unspecified)
→ -7	3	·	·	·	4.0	0.1	?
CNCc1ccccc1Sc1ccc(O)c(O)c1
→ -1	31	·	0.0	-1	1.5	-1.7	107*
C=CCN1C(=O)c2ccc(C(=O)NCCc3ccc(F)cc3)cc2C1=O
→ 21	2	-1.2	-0.2	-1	-2.4	2.5	6
CCNc1nc(NCC)n2c(SCC(=O)c3ccccc3F)nnc2n1
→ -8	3	5.9	0.9	-3	1.2	-2.3	11
CCCN1C(=O)S/C(=C/c2ccc(N3CCOCC3)o2)C1=O
→ 8	37	-72	-0.1	-2	7.9	8.2	45
COc1ccc(C(CNC(=O)C(=O)Nc2ccc3c(c2)OCCO3)N2CCN(C)CC2)cc1 (stereo unspecified)
→ 2	-4	-5.6	-1.8	·	3.8	-0.1	5
CCn1c(SCC(=O)NNC(=O)Cc2ccccc2)nnc1-c1ccccc1
→ 0	-12	-2.7	-0.3	-2	-0.3	?	-3
CC(c1ccccc1)n1c(-c2ccncc2)n[nH]c1=S (stereo unspecified)
→ -4	-6	1.9	1.0	3	0.8	-2.0	10
Cc1[nH]c(C)c(S(=O)(=O)N2CCN(c3ccccc3)CC2)c1C(=O)N1CCCCC1
→ 7	6	-1.4	-0.2	-4	3.5	1.1	5

# The list goes on:
# Order of results – Beta2AR agonist	T cruzi inh	LANA-H2B inh	Bfl-1 A1 inh	Beta cell apopt	UCH37 DUB inh	RanGTP-Imp inh	Calb FLC
Cn1ncc(Br)c1C(=O)NC1CCCCCC1
→ -7	4	-1.1	0.4	-4	0.3	3.7	5
Cc1cccc(C)c1NC(=O)CN(c1ccccn1)S(=O)(=O)c1ccccc1
→ -2	7	-5.5	-0.5	-8	-20	-3.7	12
O=[N+]([O-])c1ccc(Oc2ccc(OCc3ccccc3)cc2)nc1
→ 10	31	0.1	-1.3	-1	2.9	7.0	3
COc1ccc(NCC(=O)Nc2ccc(Br)cc2F)c(OC)c1
→ 0	49	2.7	2.3	16	3.0	-1.7	4
COc1cc(C(=O)NCC2(c3ccccc3)CCCC2)cc(OC)c1OC
→ -11	21	-0.4	-0.1	4	2.3	2.8	0
Cc1cc(/C=N\NC(=O)c2cccs2)c(C)n1-c1ccc2ncccc2c1
→ 15	16	-3.8	-0.9	1	·	-2.3	21
O=C1Nc2ccccc2C(O)(C(=O)NCc2ccco2)N1c1ccc(Cl)cc1 (stereo unspecified)
→ 1	6	-0.7	0.0	0	1.0	-4.2	0
COc1ccc(CCN2CC(C(=O)N3CCC(O)(c4ccccc4)CC3)CCC2=O)cc1 (stereo unspecified)
→ -16	4	-0.5	0.6	·	3.2	2.9	2
COc1ccccc1N1CCN(C(=O)/C=C/c2cccc([N+](=O)[O-])c2)CC1
→ 5	7	2.2	-0.3	1	3.6	-2.0	-12
Cc1cc(C)n(-c2nnc(NC(C)(C)C)nn2)n1
→ -9	-9	2.2	-0.3	-3	5.4	9.5	-39
NNC(=O)C(=O)Nc1ccc(Cl)c(Cl)c1
→ 2	-13	-4.8	-0.7	-4	0.0	-2.1	7
CC(C)c1[nH]nc2c1C(Cc1ccccc1)C(C#N)=C(N)O2 (stereo unspecified)
→ 1	4	9.3	0.7	-6	0.1	4.0	1
CCO[C@@H]1OC(C(=O)Nc2ccccc2)=C[C@H](c2ccc3c(c2)OCO3)[C@H]1CCCO
→ -5	17	-1.4	0.0	5	2.6	2.2	33
CCOC(=O)NNS(=O)(=O)c1cc(Br)ccc1Br
→ -2	-4	-4.1	0.4	-1	-0.5	2.8	11
COc1ccccc1C1CCN(c2cc(O)ccc2[N+](=O)[O-])CC1
→ 7	6	-1.4	-0.8	0	4.2	-3.1	-1

# More results follow.
# Order of results – Beta2AR agonist	T cruzi inh	LANA-H2B inh	Bfl-1 A1 inh	Beta cell apopt	UCH37 DUB inh	RanGTP-Imp inh	Calb FLC
CC(C)(C)S(=O)(=O)c1c(C(=O)O)cccc1C(=O)O
→ -13	6	0.0	0.2	-10	1.6	-3.9	-8
Cc1n[nH]c(C)c1CCN(C)Cc1cn(C)nc1-c1ccc2c(c1)OCCO2
→ -2	-2	-1.1	0.6	0	-0.6	-4.2	-17
COc1ccc(CNC(=O)[C@H](NC(=O)C2CCN(C(=O)[C@@H](N)CCSC)CC2)C(C)C)cc1
→ 2	-6	-5.5	0.4	·	1.0	4.7	-10
O=C(COc1ccccc1)Nc1ccc(CSc2ccccc2)cc1
→ 3	-8	0.7	-0.3	-6	-1.2	-2.9	4
Cc1ccc(N=C/C(C(=O)C(F)(F)F)=C(\O)c2cccs2)cc1
→ -1	17	-0.3	-2.3	-3	-4.4	4.9	0
CCOC(=O)c1nc2nc(C)c(Cl)c(=O)n2[nH]1
→ 2	·	-1.8	-0.1	-4	2.6	·	·
COc1ccc(OC)c(S(=O)(=O)N2CCC(C(=O)NCC3CCCO3)CC2)c1 (stereo unspecified)
→ 1	-11	-5.5	-0.3	3	2.3	-2.6	3
Fc1ccc(/C=N/Nc2nccnc2Cl)cc1
→ 4	-8	-1.3	-13	26	·	1.3	17
CCC(=O)Nc1cc2c3c(c1)CCC(=O)N3CCC2
→ -4	-8	-8.3	1.4	7	1.4	-3.1	12
CN1CCN(c2oc(-c3ccccc3F)nc2S(=O)(=O)c2ccc(Cl)cc2)CC1
→ -6	24	-1.4	0.4	·	3.6	-1.3	-21

# Compound activity (PubChem BioAssay)
